GLP-1R inv ag: inverse agonists of human GLP-1 receptor; HEK293 GLP-1R CRE-luciferase, luminescence, 24 h; GLP-1R form is constitutively active; Potency, µM (titrated, usually from 38.3 µM), for inactives: at the top dose activity change, negative = inhibition, actives largely listed as inhibitors; actives 1.6% (n = 410,000); AID 624417; also: potency is read from the fitted curve at half-maximal effect; % is scaled to controls: 0 for no effect and ±100 for the full control effect; nearly all actives have a fitted effect of over 55% in size
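Readout was luciferase luminescence, measured 12 min after detection reagent at room temperature. Beforehand, GLP-1R reporter HEK293 cells had sat 12 h, then received compounds for 24 hr at 37 deg C.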
GLP1R ag: GLP-1 receptor (human) agonism | P43220 | HEK293 GLP-1R CRE-luciferase, luminescence, 4-6 h; cells express a hypersensitive GLP-1R form | Potency, µM (series often up to 45.6 µM), for the others: at the highest dose activation, hits mostly activators | actives 0.007% (n = 380,000) | AID 624172; also: potency is read from the fitted curve at half-maximal effect; % of control where 0% means no effect
EPAC1 agonist: agonists of human EPAC1; O95398; EPAC1 agonist qHTS, biochemical assay; response scale: 100% = response to 6.5 mM cAMP; Potency, µM (series often up to 154 µM), for inactives: at the highest dose activation, actives largely listed as activators; actives 0.073% (n = 360,000); AID 720707; also: potency is read from the fitted curve at half-maximal effect; nearly all actives have a fitted effect of over 60% in size
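Compounds were pinned as a concentration titration into mixtures of EPAC1 (100 nM), BODIPY-GDP-loaded Rap1B (250 nM) and GDP (50 uM). After 5 min at room temperature, fluorescence was followed for 30 min; activity was scaled to 6.5 mM cAMP.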
IL-2 act: activators of IL-2. IL-2 activation reporter assay, cell-based qHTS; stimulated with anti-CD3/CD4/CD28 beads; in transgenic mouse T cells. activation, % (series mostly up to about 46 µM). actives 0.065% (n = 360,000); in the data active = activation above about 50%; inconclusive = mostly about 30% to 49%; also: 0% is about no effect
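Quantitative HTS in unstimulated transgenic mouse T cells, with memory T cells as non-tolerant control and PMA/ionomycin as tolerance-bypass control. Compound pretreatment lasted 60 minutes before 18 h bead stimulation; EGFP/DsRed fluorescence read.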
PI5P4Ka inh: PI5P4K alpha (human) kinase inhibition; P48426; PI5P4Kalpha enzyme, ADP-Glo luminescence, 60 min; hits give low values; max response, %; actives 1.2% (n = 330,000); AID 652105; active = max response of -50% or lower; inconclusive = between -30% and -50%; inactive = -30% or higher; also: value at the top dose of about 77 µM; % is scaled to controls: 0 for no effect and ±100 for the full control effect
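Quantitative HTS of the MLSMR library against PI5P4Kalpha with substrate. ATP added last at 5 microM final; room temperature, 60 minutes. Remaining ATP depleted, ADP converted and read as luminescence.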
EPAC1 antagonist: EPAC1 (human) antagonism; actives 0.14% (n = 360,000); Potency, µM (highest dose often 115 µM), for inactives: top-dose activity change, negative = inhibition, hits mostly inhibitors; EPAC1 GEF assay, Rap1b-BODIPY-GDP exchange fluorescence; AID 720709; O95398;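 also: potency is read from the fitted curve at half-maximal effect; plate controls were vehicle for no effect and positive control for full effect; nearly all actives have a fitted effect of over 50% in size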
HEK293 tox: cytotoxicity counter-screen for GLP-1 receptor inverse agonists | actives 0.13% (n = 410,000) | HEK293 cAMP-luciferase reporter cells, luminescence, 24 h | Potency, µM (highest dose often 38.3 µM), for inactives: at the top dose activity change, negative = inhibition, most hits filed as inhibitors;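 also: loss of luciferase light is scored as toxicity; potency is read from the fitted curve at half-maximal effect; % is scaled to controls: 0 for no effect and ±100 for the full control effect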
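MLSMR compounds, 24 hr on cells at 37 deg C/5% CO2; luminescence after luciferase reagent (12 min RT). Inhibition counted as the undesired cytotoxic outcome.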
PLK1 PBD inh: blocks phosphopeptide binding to human PLK1 polo-box domain; P53350; Plk1 PBD binding of FITC phosphopeptide, fluorescence polarization; Potency, µM, for the others: max response, negative = inhibition, usual class: inhibitors; actives 2.8% (n = 360,000); also: potency is read from the fitted curve at half-maximal effect; series mostly up to about 57 µM; % is scaled to controls: 0 for no effect and ±100 for the full control effect; nearly all actives have a fitted effect of over 65% in size
Target sequence (P53350 whole entry, looked up, the tested form may be a part): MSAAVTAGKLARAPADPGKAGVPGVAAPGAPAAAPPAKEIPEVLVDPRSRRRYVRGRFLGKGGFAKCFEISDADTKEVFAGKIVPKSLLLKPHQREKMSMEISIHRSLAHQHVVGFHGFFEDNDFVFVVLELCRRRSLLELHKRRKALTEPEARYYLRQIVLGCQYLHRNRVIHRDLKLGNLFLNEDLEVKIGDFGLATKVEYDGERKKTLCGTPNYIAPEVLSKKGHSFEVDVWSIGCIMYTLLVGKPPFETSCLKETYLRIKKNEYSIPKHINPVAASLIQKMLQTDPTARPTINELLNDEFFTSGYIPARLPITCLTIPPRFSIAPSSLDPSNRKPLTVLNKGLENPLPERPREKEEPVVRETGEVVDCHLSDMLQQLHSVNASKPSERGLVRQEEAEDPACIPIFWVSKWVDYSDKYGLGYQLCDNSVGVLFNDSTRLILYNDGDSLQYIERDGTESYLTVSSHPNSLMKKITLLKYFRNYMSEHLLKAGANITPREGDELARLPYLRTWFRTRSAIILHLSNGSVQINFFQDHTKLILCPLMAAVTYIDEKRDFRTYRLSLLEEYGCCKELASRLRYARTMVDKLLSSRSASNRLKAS
* = called active by the depositor; ? = inconclusive; . = no result given; & = joins results of further samples; [ ] = dose if it differs, or a comment. Unless noted, calls follow the shape of the dose curve; as a rule, active = well fitted curve in the direction sought with a large enough effect; inconclusive = small, poorly fitted or top-dose-only effect, or another doubt; inactive = no such curve, though single readings can be large; an effect the other way counts as inactive or inconclusive. Not all compounds are listed, so the mix of outcomes need not match the whole.

Codes: A = GLP-1R inv ag; B = GLP1R ag; C = EPAC1 agonist; D = IL-2 act; E = PI5P4Ka inh; F = EPAC1 antagonist; G = HEK293 tox; H = PLK1 PBD inh
> Cc1ccc(NC(=O)c2sc(-n3nc(C)c(Cc4ccc(Cl)cc4)c3C)nc2C)cc1
  A = 6.6%; B = .; C = .; D = .; E = .; F = .; G = 6.9%; H = .
> COc1cccc(/C=C/c2nc(C#N)c(N3CCN(C)CC3)o2)c1
  A = 11.1%; B = .; C = .; D = .; E = .; F = .; G = 7.2%; H = .
> O=C(C1CCCN(CCCc2ccccc2)C1)N1CCCCCC1 (centres undefined)
  A = -12.9%; B = 4.8%; C = 6.1%; D = -1.9; E = -11.8; F = -0.2%; G = -8.2%; H = -8.2%
> CC(C)n1c(SCC(=O)NCc2ccco2)nc2c1c(=O)n(C)c(=O)n2C
  A = 6.8%; B = -2.0%; C = 1.9%; D = 0.7; E = .; F = -14.8%; G = 5.2%; H = -8.4%
> COc1cccc(C2CN(c3ccc(F)cc3F)N=C2c2cccs2)c1OC (centres undefined)
  A = ?; B = 2.5%; C = 7.6%; D = -0.5; E = -3.8; F = -20.8%; G = 131.6%[activator]; H = 2.9%
> Cc1cc(=O)oc2cc(OCC(O)CN3CCN(c4ccccc4)CC3)ccc12 (centres undefined)
  A = ?; B = 3.3%; C = 6.5%; D = 2.0; E = 0.8; F = -19.6%; G = 11.0%; H = -16.1%
> CCc1ccccc1NC(=O)c1sc(-n2nc(C)c(Cc3ccc4c(c3)OCO4)c2C)nc1C
  A = -2.6%; B = .; C = .; D = .; E = .; F = .; G = -7.8%; H = .
> COc1ccccc1N1CN(CCc2ccccc2)CNC1=S
  A = 1.0%; B = 8.5%; C = -10.5%; D = -2.6; E = 6.0; F = -2.4%; G = -26.3%; H = 2.2%
> O=C(CN(c1ccc2c(c1)OCCO2)S(=O)(=O)c1ccccc1)N1CCN(Cc2ccccc2)CC1
  A = ?; B = 7.0%; C = -3.2%; D = -1.0; E = 4.0; F = 1.9%; G = -4.6%; H = -8.5%
> Cc1ccc(-c2nc3c(c(SCC(=O)N4CCOCC4)n2)COC(C)(C)C3)cc1
  A = 8.0%; B = -9.1%; C = -2.3%; D = -3.4; E = -0.6; F = 4.6%; G = -5.1%; H = -6.1%
> Fc1ccc(-c2cc3nc(-c4ccccc4)cc(N4CCN(CCN5CCOCC5)CC4)n3n2)cc1
  A = 0.0%; B = -2.9%; C = 0.3%; D = -0.6; E = .; F = -7.3%; G = 3.0%; H = -1.7%
> COc1ccc(CNC(=O)CS(=O)Cc2nc(-c3ccc(OC)c(OC)c3)oc2C)cc1 (centres undefined)
  A = 19.1%&2.0%; B = 15.0%; C = 7.9%; D = -0.3; E = -0.9; F = -9.8%; G = -1.1%&-15.8%; H = -8.5%
> O=C(CCN1CCc2ccccc2C1)Nc1ccc(F)c(F)c1
  A = ?; B = 22.5%; C = 7.4%; D = 2.0; E = 2.2; F = 2.6%; G = 8.3%; H = -2.6%
> FC(F)(F)c1ccccc1NC(=S)N1CCCCCC1
  A = -24.5%; B = -0.6%; C = -10.8%; D = -0.4; E = 2.0; F = -18.4%; G = 2.3%; H = -8.9%
> COc1ccc(/C=N\NC(=O)COc2ccc(Cl)cc2Cl)c(C(=O)O)c1OC
  A = 5.5%; B = -0.4%; C = 0.3%; D = -2.4; E = 6.4; F = 6.7%; G = 0.0%; H = -4.4%
> O=C1CN(C(=O)CSc2nnc(-c3ccccc3)n2Cc2ccc3c(c2)OCO3)c2ccccc2N1
  A = -41.7%; B = 8.6%; C = -0.7%; D = 0.3; E = 0.3; F = 12.5%; G = -12.4%; H = -19.0%
> O=C(NCN1CCc2ccccc2C1)c1cnccn1
  A = 22.8%; B = -11.2%; C = 8.2%; D = -0.2; E = .; F = 6.0%; G = 6.0%; H = -24.5%
> CN1CCN(c2cc(-c3ccccc3)nc3cc(-c4ccc(F)cc4)nn23)CC1
  A = ?; B = 14.8%; C = -0.2%; D = 0.1; E = 21.6; F = 14.2%; G = 1.3%; H = -0.2%
> CCOC(=O)Cc1csc(/C(=N/O)C(N)=O)n1
  A = -4.1%; B = -15.4%; C = 4.6%; D = -2.4; E = .; F = 7.2%; G = 5.0%; H = -7.9%
> Cc1ccc(Nc2nnc(-c3cc4c(ccc5ccccc54)oc3=O)s2)cc1
  A = 24.8%; B = .; C = .; D = .; E = .; F = .; G = 4.5%; H = .
> CCC(Sc1nc2cc(OC)c(OC)cc2c(=O)n1Cc1ccc(Cl)cc1)C(=O)NCCOC (centres undefined)
  A = 15.4%; B = .; C = .; D = .; E = .; F = .; G = -2.6%; H = .
> CCCn1c(CN2CCN(C(=O)OCC)CC2)nc2cc(NC(=O)C(C)C)ccc21
  A = -26.3%; B = -3.9%; C = 3.4%; D = 0.5; E = 2.6; F = -22.0%; G = -16.7%; H = -13.7%
> COc1ccccc1CNC(=O)C(CC(C)C)N1Cc2ccccc2C1=O (centres undefined)
  A = ?; B = .; C = .; D = .; E = .; F = .; G = -7.1%; H = .
> CC(C)NC[C@H](O)c1ccc(O)c(O)c1
  A = 43.0%; B = ?; C = -15.6%; D = 0.9; E = -1.9; F = -6.2%; G = -1.3%; H = -7.6%
> CCC(=O)NS(=O)(=O)c1cccnc1Nc1ccccc1Cl
  A = 2.6%; B = -12.6%; C = 0.9%; D = -0.5; E = -5.1; F = -6.1%; G = -6.9%; H = -1.9%

Further structures
Codes: A = GLP-1R inv ag; B = GLP1R ag; C = EPAC1 agonist; D = IL-2 act; E = PI5P4Ka inh; F = EPAC1 antagonist; G = HEK293 tox; H = PLK1 PBD inh
> COc1ccc(CCNC(=O)CSc2ncn[nH]2)cc1
  A = 0.0%; B = 12.8%; C = 3.7%; D = -1.5; E = .; F = 5.7%; G = 6.6%; H = 2.6%
> CC(C)CCn1c2ccccc2c2cc(CC(N)=O)ccc21
  A = ?; B = 19.6%; C = -9.1%; D = -0.6; E = 23.4; F = -14.5%; G = -18.2%; H = -16.2%
> CC(c1ccccc1)n1c(SCC(=O)N2CC(=O)Nc3ccccc32)nc2ccccc2c1=O (centres undefined)
  A = -28.8%; B = -2.5%; C = 1.2%; D = 0.0; E = -0.7; F = 4.8%; G = -23.8%; H = 7.5%
> COc1cc(C(=O)NNC(=O)COc2ccc(C)cc2)ccc1OCC(=O)N1CCOCC1
  A = 16.7%; B = -4.1%; C = 7.5%; D = -0.4; E = 4.5; F = -5.1%; G = 7.6%; H = -7.5%
> O=C(NCN1CCN(c2ccccn2)CC1)c1cnccn1
  A = -3.4%; B = -1.4%; C = -1.8%; D = 0.2; E = 5.7; F = 3.8%; G = -3.0%; H = -1.0%
> CC(C)C(C(=O)N1CCOCC1)N1C(=O)c2ccccc2C1=O (centres undefined)
  A = 1.5%; B = -0.6%; C = 7.4%; D = 1.1; E = .; F = 2.8%; G = -9.2%; H = -4.6%
> CCOc1cc(Br)c(CC(=O)O)cc1OCC
  A = -6.5%; B = 2.3%; C = 5.0%; D = 0.5; E = 0.1; F = -1.0%; G = 1.1%; H = 1.2%
> O=C(Nc1ccc(NC(=O)c2ccccc2F)cc1)c1cccs1
  A = 5.5%; B = -3.0%; C = -6.1%; D = 0.1; E = 1.8; F = -8.2%; G = -30.9%; H = 1.2%

By substructure, those above containing an aryl thioether with sulfur outside any ring (6)
Codes: A = GLP-1R inv ag; B = GLP1R ag; C = EPAC1 agonist; D = IL-2 act; E = PI5P4Ka inh; F = EPAC1 antagonist; G = HEK293 tox; H = PLK1 PBD inh
> CC(C)n1c(SCC(=O)NCc2ccco2)nc2c1c(=O)n(C)c(=O)n2C
  A = 6.8%; B = -2.0%; C = 1.9%; D = 0.7; E = .; F = -14.8%; G = 5.2%; H = -8.4%
> Cc1ccc(-c2nc3c(c(SCC(=O)N4CCOCC4)n2)COC(C)(C)C3)cc1
  A = 8.0%; B = -9.1%; C = -2.3%; D = -3.4; E = -0.6; F = 4.6%; G = -5.1%; H = -6.1%
> O=C1CN(C(=O)CSc2nnc(-c3ccccc3)n2Cc2ccc3c(c2)OCO3)c2ccccc2N1
  A = -41.7%; B = 8.6%; C = -0.7%; D = 0.3; E = 0.3; F = 12.5%; G = -12.4%; H = -19.0%
> CCC(Sc1nc2cc(OC)c(OC)cc2c(=O)n1Cc1ccc(Cl)cc1)C(=O)NCCOC (centres undefined)
  A = 15.4%; B = .; C = .; D = .; E = .; F = .; G = -2.6%; H = .
> COc1ccc(CCNC(=O)CSc2ncn[nH]2)cc1
  A = 0.0%; B = 12.8%; C = 3.7%; D = -1.5; E = .; F = 5.7%; G = 6.6%; H = 2.6%
> CC(c1ccccc1)n1c(SCC(=O)N2CC(=O)Nc3ccccc32)nc2ccccc2c1=O (centres undefined)
  A = -28.8%; B = -2.5%; C = 1.2%; D = 0.0; E = -0.7; F = 4.8%; G = -23.8%; H = 7.5%
